# quorum sensing: Vibrio cholerae quorum sensing activators, luminescence (AID 686977); V. cholerae quorum sensing reporter, luminescence, 6 h; higher luminescence means a stronger effect; most inactives read 0; luminescence at 50 µM unless noted, or EC50 in µM where a hit was titrated; 9,400 tested, under 10 active;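 active = light above mean plus 3 SD and confirmed in a dose series; inconclusive = above that limit without a clear retest; inactive = below it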;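 note: raw light counts without normalisation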
# * hit, by the source's call; u = inconclusive; [ ] = another dose, or the depositor's remark. The list is partial; rates above refer to the full screens.
SMILES,quorum sensing
Cc1cc(NS(=O)(=O)c2ccc(NC(=O)C(C(C)C)N3C(=O)c4ccccc4C3=O)cc2)nc(C)n1 (stereo not drawn),0
COc1ccc(CCNS(=O)(=O)c2ccc3c(c2)OCCO3)cc1,0
CCOc1ccccc1NC(=O)C1C2C=CC(C2)C1C(=O)O (stereo not drawn),0
O=C(COc1ccccc1)Nc1nc2ccccc2[nH]1,40
O=C(Nc1ccc2c(c1)OCO2)c1ccc(CN2CCOCC2)cc1,40
Cc1ccn(-c2ccc([N+](=O)[O-])cc2)n1,0
CCOC(=O)c1nnn(CC(=O)Nc2cc(Cl)ccc2C)c1C(=O)OCC,40
O=S(=O)(Cc1ccccc1)N1CCn2c(nc3ccccc32)C1,0
Cn1c(=O)oc2cc(S(=O)(=O)N3CCCC(C(=O)NCC4COc5ccccc5O4)C3)ccc21 (stereo not drawn),0
O=C(Cn1nc(Cc2cccnc2)c2ccccc2c1=O)Nc1ccc2c(c1)OCO2,160
C=CCNC(=S)N1CCC(C(=O)c2ccc(OC)cc2)CC1,0
Cc1cc(C)cc(NC2=CC(=O)CC(c3ccco3)C2)c1 (stereo not drawn),200
O=C(NCc1ccccn1)c1cc2ccccn2n1,0
O=c1c2cnn(-c3ccccc3)c2ncn1Cc1ccco1,0
CCOc1ccccc1N1CSC2=C(C#N)C(c3c(OC)ccc4ccccc34)CC(=O)N2C1 (stereo not drawn),u
COCCn1c(SCc2ccccc2Cl)nc2c1c(=O)[nH]c(=O)n2C,0
CCOC(=O)Oc1c(OC)cc(C(=O)O[C@@H]2C[C@@H]3CN4CCc5c([nH]c6cc(OC)ccc56)[C@H]4C[C@@H]3[C@H](C(=O)OC)[C@H]2OC)cc1OC,40[10 µg/mL]
COC(=O)c1cc(C(=O)OC)cc(N2C(=O)CC(NNC(=O)c3ccccc3Br)C2=O)c1 (stereo not drawn),u
Cc1noc(C)c1S(=O)(=O)N(CC(=O)N1CCCC1)c1ccc(C(C)C)cc1,0
Cc1cc(C(=O)Nc2ccccc2C(F)(F)F)no1,0
O=C(CSc1nnc(-c2ccccc2)o1)NCC1CCCCC1,0
CCN1CCN(C(=O)CCCn2c(C)c3cnn(-c4ccccc4)c(=O)c3c2C)CC1,0
COc1ccc(CCN(C)CCCC(C#N)(c2ccc(OC)c(OC)c2)C(C)C)cc1OC (stereo not drawn),0[10 µg/mL]
Cc1ccc(NC(=O)c2cc(S(=O)(=O)N3CCC4(CC3)OCCO4)ccc2F)cc1,0
O=C(COc1ncnc2cc([N+](=O)[O-])ccc12)NCc1ccc2c(c1)OCO2,40
COC(=O)C(C)n1cnc2c(nnn2-c2cccc(Cl)c2)c1=O (stereo not drawn),40
O=C(NCc1ccco1)c1ccc(Cn2c(=O)c3ccccc3n(Cc3cccc(F)c3)c2=O)cc1,0
CN(c1ccccc1)S(=O)(=O)c1ccc(NC(=O)c2ccc(-c3ccccc3)cc2)cc1,0
Cc1cc2nc(CCN(C(=S)NCC(C)C)C3CCCC3)[nH]c2cc1C,0
CC1CCCCC1NC(=O)c1ccc(CNc2c(N3CCCC3)c(=O)c2=O)cc1 (stereo not drawn),0
Nn1c(SCC(=O)NC2CCCc3ccccc32)nnc1-c1cccs1 (stereo not drawn),40
CCC1CCCCN1C(=O)N[C@@H](CCSC)C(=O)OC (stereo partly drawn),40
COc1ccc(CNC(=O)c2cc(C3CC3)on2)cc1,40
COc1ccccc1Nc1nnc(SCC(=O)c2cc(C)n(CC3CCCO3)c2C)s1 (stereo not drawn),0
COc1ccccc1Oc1coc2cc(OC(=O)N3CCOCC3)ccc2c1=O,40
COC(=O)CCSCC(=O)Nc1nnc(C)s1,760
CCn1c(SCC(=O)Nc2nnc(C)s2)nnc1-c1ccncc1,40
CCCC(=O)C1=C(O)C(C(=O)OC)C(C)(C)CC1=NC(C)(C)C (stereo not drawn),0
COc1ccc(/C=N/N2CCN(C)CC2)cc1OC,40
COc1ccc(C(C(=O)NC2CCCC2)N(CCN2CCOCC2)C(=O)c2ccc(OC)c(OC)c2)cc1 (stereo not drawn),680
Cc1cccc(NS(=O)(=O)c2ccc(Oc3ccccc3)cc2)n1,0
c1ccc(Cn2nnc3c(N4CCOCC4)ncnc32)cc1,0
c1cncc(CNC2CCCc3ccccc32)c1 (stereo not drawn),40
CCCCNC(=O)c1ccc2nc(-c3ccco3)c(-c3ccco3)nc2c1,40
COc1ccc(-c2cc(C(=O)NCCCn3ccnc3)no2)cc1OC,0
Cc1nn(C)c(C)c1S(=O)(=O)N1CCCC(C(=O)N2CCN(c3ccccc3)CC2)C1 (stereo not drawn),0
CC1CC(C)CN(S(=O)(=O)c2cccc3cccnc23)C1 (stereo not drawn),0
CC[C@H](C)[C@H]1O[C@]2(CC[C@@H]1C)C[C@@H]1C[C@@H](C/C=C(\C)[C@@H](O[C@H]3C[C@H](OC)[C@@H](O[C@H]4C[C@H](OC)[C@@H](O)[C@H](C)O4)[C@H](C)O3)[C@@H](C)/C=C/C=C3\CO[C@@H]4[C@H](O)C(C)=C[C@@H](C(=O)O1)[C@]34O)O2,0[10 µg/mL]
O=C(NCc1ccc(F)cc1)c1cnn2ccccc12,0
COc1ccc(CNC(=O)Cn2cc3c(n2)CCCCC3)cc1,0
# The list goes on.
SMILES,quorum sensing
Cc1cc(C)nc(NS(=O)(=O)c2ccc(NC(=O)Cn3c(=O)oc4ccccc43)cc2)n1,0
COc1ccc(OC)c(NC(=O)Cn2c(-c3ccc(Cl)cc3)noc2=O)c1,40
COc1ccc(NC(=O)CC2SC(=NCc3ccccc3OC)NC2=O)cc1 (stereo not drawn),0
CCOC(=O)CSC(C)C(=O)Nc1nnc(C(C)C)s1 (stereo not drawn),0
CN(CC(CC(=O)Nc1nncs1)c1ccccc1)S(=O)(=O)c1ccccc1 (stereo not drawn),0
CC(N=C(NS(=O)(=O)c1ccc(Cl)cc1)c1ccccc1)C(=O)O (stereo not drawn),0
CC[C@H](CC[C@@H](C)[C@H]1CC[C@H]2[C@@H]3CC=C4C[C@@H](O)CC[C@]4(C)[C@H]3CC[C@]12C)C(C)C,0[10 µg/mL]
C[C@]12CCC3[C@@H](CC[C@@H]4C[C@H](O)CC[C@]34C)[C@@H]1CCC2=O (stereo partly drawn),0[10 µg/mL]
CN(C(=O)COc1cc(=O)n(C)c2ccccc12)c1ccc(Cl)cc1,280
C[C@@H]1NCCc2cc(O)c(O)cc21,0[10 µg/mL]
Cn1c(=O)[nH]c(=O)c2c1nc(CN1CCOCC1)n2Cc1ccc(F)cc1,40
Cc1nc2ccccc2c2oc(C(=O)NCCCN3CCCC3=O)cc12,0
COc1ccc(Nc2nnc(SCC(=O)c3cc(C)n(CC4CCCO4)c3C)s2)cc1 (stereo not drawn),0
CC1(C)Cc2ccccc2-c2nnc(SCc3ccc(C#N)cc3)n21,0
Cc1nc2c(-c3ccc(F)cc3)c(C)nn2c(C)c1CCC(=O)N1CCN(c2ccccn2)CC1,0
Cc1ccccc1NC(=O)c1ccc(-c2ccc(Cl)cc2Cl)o1,0
CC(C)CCNC(=O)C1C2C=CC3(CN(Cc4ccccc4Cl)C(=O)C13)O2 (stereo not drawn),0
Cc1ccc2nc(-c3ccc(SCC(=O)O)nc3)[nH]c2c1,0
COc1cccc(N=Nc2c(=O)[nH]n3c(=O)cc(C)[nH]c23)c1,40
CC(C)(C)c1cc(NC(=O)c2cc(F)c(F)c(F)c2F)no1,0

# For reference, part of the list above:
SMILES,quorum sensing
COc1ccc(NC(=O)CC2SC(=NCc3ccccc3OC)NC2=O)cc1 (stereo not drawn),0
CCOC(=O)CSC(C)C(=O)Nc1nnc(C(C)C)s1 (stereo not drawn),0
CN(CC(CC(=O)Nc1nncs1)c1ccccc1)S(=O)(=O)c1ccccc1 (stereo not drawn),0
CC(N=C(NS(=O)(=O)c1ccc(Cl)cc1)c1ccccc1)C(=O)O (stereo not drawn),0
CC[C@H](CC[C@@H](C)[C@H]1CC[C@H]2[C@@H]3CC=C4C[C@@H](O)CC[C@]4(C)[C@H]3CC[C@]12C)C(C)C,0[10 µg/mL]
C[C@]12CCC3[C@@H](CC[C@@H]4C[C@H](O)CC[C@]34C)[C@@H]1CCC2=O (stereo partly drawn),0[10 µg/mL]
CN(C(=O)COc1cc(=O)n(C)c2ccccc12)c1ccc(Cl)cc1,280
C[C@@H]1NCCc2cc(O)c(O)cc21,0[10 µg/mL]
Cn1c(=O)[nH]c(=O)c2c1nc(CN1CCOCC1)n2Cc1ccc(F)cc1,40
Cc1nc2ccccc2c2oc(C(=O)NCCCN3CCCC3=O)cc12,0
COc1ccc(Nc2nnc(SCC(=O)c3cc(C)n(CC4CCCO4)c3C)s2)cc1 (stereo not drawn),0
CC1(C)Cc2ccccc2-c2nnc(SCc3ccc(C#N)cc3)n21,0
Cc1nc2c(-c3ccc(F)cc3)c(C)nn2c(C)c1CCC(=O)N1CCN(c2ccccn2)CC1,0
Cc1ccccc1NC(=O)c1ccc(-c2ccc(Cl)cc2Cl)o1,0
CC(C)CCNC(=O)C1C2C=CC3(CN(Cc4ccccc4Cl)C(=O)C13)O2 (stereo not drawn),0
Cc1ccc2nc(-c3ccc(SCC(=O)O)nc3)[nH]c2c1,0
COc1cccc(N=Nc2c(=O)[nH]n3c(=O)cc(C)[nH]c23)c1,40
CC(C)(C)c1cc(NC(=O)c2cc(F)c(F)c(F)c2F)no1,0

# Next section.
SMILES,quorum sensing
O=C(O)C1CCN(C(=O)c2ccccc2Cl)CC1,0
CCN(CC)C1=CC(=O)OC12CCCCC2,40
COc1cc(OC)cc(C(=O)Nc2cc(NC(=O)c3ccco3)ccc2OC)c1,0
Cn1c(-c2ccc(Br)o2)nc2cc(Br)ccc21,0
CCS(=O)(=O)Nc1cccc(-c2nc3cccnc3s2)c1C,0
COc1ccc(S(=O)(=O)N2CCC(C(=O)NCCC3=CCCCC3)CC2)cc1OC,240
Cc1nc(CSc2ccc(Cl)cc2)cc(NCc2ccccc2)n1,40
COc1ccc(C2N(c3ccc(F)cc3)C(=O)C3CCCN32)cc1 (stereo not drawn),0
CCCOc1ccc(N2C(=O)C3ON(c4ccccc4)C(CCC)C3C2=O)cc1 (stereo not drawn),0
CCN1C(=O)CC(C(=O)NC)SC1=Nc1cc(Cl)c(O)c(Cl)c1 (stereo not drawn),0
O=c1[nH]c(SCc2ccccc2Cl)nc2c1CCCC2,40
Cn1nnnc1SCc1csc(Nc2ccccc2)n1,0
O=c1cc(-c2ccccc2)[nH]c2[nH]n(-c3ccccc3)c(=O)c12,40
CC1CC(C)CN(c2nc3c(c(=O)n(C)c(=O)n3C)n2CCSc2ncccn2)C1 (stereo not drawn),0
COc1ccccc1-c1c(C)nn2c(N3CCN(Cc4ccccc4)CC3)cc(C)nc12,0
CSC1=N/C(=C\C=C\c2cccs2)C(=O)S1,0
Cc1cc(C)c2[nH]c(=O)c(CN(Cc3ccc4c(c3)OCO4)Cc3nnnn3C3CCCC3)cc2c1,0
CCOC(=O)N1CCC(NC(=O)CSCc2nc(-c3sccc3C)oc2C)CC1,0
Cc1ccccc1NS(=O)(=O)c1ccc(OCC(=O)N2CCCCC2)cc1,0
CCN(CC(O)Cn1c2ccccc2c2ccccc21)S(=O)(=O)c1ccc(C)cc1 (stereo not drawn),u
CCOC(=O)CSc1nc(N)c(C(=O)Nc2ccc(N(C)C)cc2)s1,0
CCCCNc1ncnc2c1cnn2-c1ccc(Cl)cc1,40
CCn1cc(C2=NOC(C(=O)Nc3ccccc3C(=O)OC)C2)c(C)n1 (stereo not drawn),40
COc1ccc(OC)c2c1CC(C)(C)NC2=O,0
O=C(COc1nsnc1N1CCOCC1)N1CCOCC1,0
Cc1ccc(Oc2ccc(-c3nc(N)nc(N)n3)cc2)cc1,0
CCOC(=O)c1ccccc1NC(=O)CSc1nnc(Cc2cccn2C)n1-c1ccc(F)cc1,40
NNCCc1ccccc1,160[10 µg/mL]
O=C(CC1Oc2ccccc2NC1=O)NCCCN1CCOCC1 (stereo not drawn),0
CCCCS(=O)CC(COc1ccc(Cl)cc1)OC(=O)c1ccccc1 (stereo not drawn),0
Cc1nc2sc(C(c3ccc(Br)cc3)N3CC(C)OC(C)C3)c(O)n2n1 (stereo not drawn),0
O=C1CCC(N2C(=O)c3ccccc3C2=O)C(=O)N1 (stereo not drawn),40[10 µg/mL]
COc1ccc(-n2c(Cc3cccn3C)nnc2SCC(=O)Nc2ccccc2)cc1,0
Cc1nc(Nc2cccc(C(F)(F)F)c2)nc2c1C(=O)CC(C)C2 (stereo not drawn),0
COc1ccc(CN=CC2=C(O)CNC2=O)cc1,40
CCS(=O)(=O)CCn1c([N+](=O)[O-])cnc1C,40[10 µg/mL]
O=C(CSCC(=O)N1CCCCC1)Nc1nc(-c2ccc(Cl)s2)cs1,0
COCCn1c(=O)[nH]c2cc(C(=O)NC(C)C)ccc2c1=O,0
CC(=O)C(C(C)=O)c1c(Cl)c(O)c(O)c2c(C(=O)c3ccccc3)coc12,0
CCOC(=O)C1=C(O)/C(=C\c2ccc(CNC(=O)C(=O)Nc3ccccc3)o2)N=C1C,0
O=C(c1ccco1)N1CCN(c2cccc(Cl)c2)CC1,40
O=C(CSCc1ccco1)c1ccc(Cl)s1,0
O=C(c1cc(-c2cccs2)on1)N1CCCc2ccccc21,0
CCOC(=O)c1c(C)[nH]c(C(=O)OCC(=O)Nc2ccc(OC)c(Cl)c2)c1C,0
O=C(Nc1ccccc1Cl)c1ccc(S(=O)(=O)N2CCOCC2)cc1,0
CCN(CC)CCN1C(=O)C(=O)/C(=C(/O)c2c(C)[nH]c(C(=O)OC)c2C)C1c1cccs1 (stereo not drawn),0
CC(=O)Nc1ccccc1OC(=O)N1CCOCC1,0
COc1ccc(NC(=O)C23CCC(C)(C(=O)C2)C3(C)C)cc1 (stereo not drawn),40
COC(=O)[C@H](CCSC)NC(=O)Nc1ccc(OC)cc1OC,40
COc1ccc(NS(=O)(=O)Cc2ccccc2Cl)cn1,u
# The results go on.
SMILES,quorum sensing
COCc1cc(C)nc(NC2CCCCC2)c1C#N,0
CS(=O)(=O)N(CC(=O)NCCC1=CCCCC1)C1CCCCC1,40
CCOc1ccc(-c2cc(N)n(S(=O)(=O)c3ccc(OC)cc3)n2)cc1,0
COc1ccc(-n2c(Cc3cc(=O)[nH]c(=O)[nH]3)nnc2SCC(=O)Nc2ccccc2)cc1,0
CCC(C)c1ccc(-c2cc(C(=O)OCC(=O)Nc3cc(C)on3)c3ccccc3n2)cc1 (stereo not drawn),0
CCC(Cc1ccccc1)NC(=O)C1CCC(CNc2c(N3CCCC3)c(=O)c2=O)CC1 (stereo not drawn),40

# High-throughput results as filed in PubChem.
